NS1 inh = blocks influenza NS1 protein function | S. cerevisiae slowed by influenza A NS1, growth recovery by OD600 | Potency, µM (titrated, usually from 46.1 µM), for the others: at the top dose activity, positive = more growth | 0.4% of 270,000 active | AID 2326; note: actives are rising curves; nearly all actives have a fitted effect of over 50% in size
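OD600 was taken as the measure of yeast growth restored by compound in an NS1-expressing S. cerevisiae strain. Cells had been washed out of glucose medium and diluted 1:100 into galactose -URA medium, pH 6.0.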
RE007 growth inh = less growth of the S. pombe RE007 Vpr strain; S. pombe RE007 Vpr strain, BacTiter-Glo ATP luminescence, 24 h; control for the full effect not named in the record; Potency, µM (titrated, usually from 92.2 µM), without a hit: at the top dose activity change, negative = less growth; 0.21% of 360,000 active; active = well fitted falling curve with a large enough effect; inconclusive = small, poorly fitted or top-dose-only effect; inactive = no such curve, though single readings can be large or run the other way;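 note: % is set by controls: 0 for no effect and ±100 for the full control effect; nearly all actives have a fitted effect of over 50% in size; the assay follows cell death caused by Vpr and the record does not say whether a fall means rescue or toxicity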
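Fission yeast RE007 carrying one integrated HIV-1 vpr copy, seeded at OD 0.01 in PMG+AL medium with 23 nL pinned compound. Grown 24 h at 30 degrees; viability read by BacTiter-Glo luminescence after 5 min.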
LASV entry inh = blocks Lassa virus binding to or entry into cells | Lassa virus pseudotype entry inhibition, cell reporter; control for the full effect not named in the record | Potency, µM (highest dose often 37.9 µM), inactives show at the top dose activity change, negative = inhibition, actives largely listed as inhibitors | 1.2% of 300,000 active; active means well fitted inhibition curve with a large enough effect; inconclusive means small, poorly fitted or top-dose-only effect, or effect the other way; inactive means flat fitted curve, though single readings scatter; tested in HEK293 cells; note: % is set by controls: 0 for no effect and ±100 for the full control effect; nearly all actives have a fitted effect of over 50% in size; luciferase read-out
MARV entry inh = Marburg virus entry inhibition; Marburg virus pseudotyped entry inhibition, cell reporter; control for the full effect not named in the record; about a third of the inactives were read at about 46 µM; Potency, µM (doses to about 37.8 µM), for the others: top-dose activity change, negative = inhibition, most hits filed as inhibitors; 1.8% of 300,000 active; AID 540276; active = well fitted inhibition curve with a large enough effect; inconclusive = small, poorly fitted or top-dose-only effect, or effect the other way; inactive = flat fitted curve, though single readings scatter; tested in HEK293 cells; about a fifth of its hits are not listed in these tables; note: % is set by controls: 0 for no effect and ±100 for the full control effect; luciferase read-out
SARS PLP yeast = blocks SARS-CoV papain-like protease in a yeast assay; S. cerevisiae expressing SARS-CoV PLpro, growth rescue; control for the full effect not named in the record; Potency, µM (top dose mostly 32.9 µM), for inactives: top-dose activity, positive = growth rescue; 0.19% of 330,000 active; note: 0% is about no effect; nearly all actives have a fitted effect of over 55% in size; growth read by luminescence after 48 h
StopGo reporter = lowers the luciferase signal of an FMDV 2A StopGo reporter. Potency, µM (series often up to 57.9 µM), inactives show at the highest dose signal change, negative = less light. 1.2% of 410,000 active. human cells with a luciferase reporter of 2A StopGo recoding; control for the full effect not named in the record; active = well fitted falling curve with a large enough effect; inconclusive = small, poorly fitted or top-dose-only effect; inactive = no such curve, though single readings can be large or run the other way; tested in HEK293T cells; note: % is set by controls: 0 for no effect and ±100 for the full control effect; nearly all actives have a fitted effect of over 45% in size; luciferase light after 4 h
Cruzain noTriton = inhibitors of Trypanosoma cruzi cruzain without detergent. P25779. purified cruzain, Z-FR-AMC fluorescence, no detergent. Potency, µM, without a hit: max response, negative = inhibition, most hits filed as inhibitors. 2.3% of 200,000 active. AID 1476; active = well fitted curve in the direction sought with a large enough effect; inconclusive = small, poorly fitted or top-dose-only effect, or another doubt; inactive = no such curve, though single readings can be large; an effect the other way counts as inactive or inconclusive;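 note: plate controls were enzyme without inhibitor for no effect and buffer without enzyme for full effect; nearly all actives have a fitted effect of over 40% in size; top concentration of the series not given in the record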
Target sequence (P25779 123-467 limits assumed): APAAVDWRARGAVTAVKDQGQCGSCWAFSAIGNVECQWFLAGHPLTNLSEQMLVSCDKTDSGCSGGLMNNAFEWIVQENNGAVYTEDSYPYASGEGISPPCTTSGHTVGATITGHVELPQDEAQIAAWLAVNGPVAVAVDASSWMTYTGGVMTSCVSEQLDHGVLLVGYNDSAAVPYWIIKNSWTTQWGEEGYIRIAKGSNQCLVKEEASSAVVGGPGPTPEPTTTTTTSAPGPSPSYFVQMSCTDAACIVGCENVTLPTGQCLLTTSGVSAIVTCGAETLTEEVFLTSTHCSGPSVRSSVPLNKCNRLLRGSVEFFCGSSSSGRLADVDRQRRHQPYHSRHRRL
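Detergent-free condition (0.00005% Triton X-100) in acetate buffer pH 5.5 with DTT. 1.5 nM enzyme and compound were pre-mixed 15 min, then 2 uM Z-FR-AMC substrate added; reaction progress from fluorescence change between first and third reads (60 s).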
Cruzain Triton = blocks cruzain activity in presence of Triton detergent; Potency, µM, without a hit: max response, negative = inhibition, actives largely listed as inhibitors; P25779; 0.43% of 200,000 active; purified cruzain, Z-FR-AMC fluorescence, 0.01% Triton; active = well fitted curve in the direction sought with a large enough effect; inconclusive = small, poorly fitted or top-dose-only effect, or another doubt; inactive = no such curve, though single readings can be large; an effect the other way counts as inactive or inconclusive;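 note: plate controls were neutral wells for no effect and buffer without enzyme for full effect; nearly all actives have a fitted effect of over 40% in size; top concentration of the series not given in the record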
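Read-out: AMC fluorescence (360 nm excitation, 450 nm emission), four reads over 2 min, first-to-third difference used. Conditions: cruzain 1.5 nM, Z-FR-AMC 2 uM, pH 5.5 acetate, 5 mM DTT, 0.01% Triton X-100.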
Numbers without * were called inactive; ? = inconclusive; / = not tested or not shown; [ ] = dose if it differs, or a comment. Unless noted, calls come from the whole dose curve; as a rule, active means well fitted rising curve with a large enough effect; inconclusive means small, poorly fitted or top-dose-only effect; inactive means no such curve, though single readings can be large or run the other way. Potency is the fitted concentration of half-maximal effect.

Values run as follows: NS1 inh	RE007 growth inh	LASV entry inh	MARV entry inh	SARS PLP yeast	StopGo reporter	Cruzain noTriton	Cruzain Triton
- O=C(NCc1ccc(F)cc1)C1CC(=O)N(C2CCCCC2)C1 (configuration not stated)
→ -7%	0%	?	14%[46.1 µM]	0%	0%	/	/
- Cc1ccc(NS(=O)(=O)c2ccc(C3CCCCC3)cc2)cc1
→ -36%	-24%	-2%	?	-73%	0%	-2%	-9.7%
- CCOc1ccc(OCC)c(NC(=O)c2ccc(-c3ccccc3)s2)c1
→ /	/	4%[46.1 µM]	-3%[46.1 µM]	/	18%	-5%	-5.3%
- O=C1NC2(CCCCCCC2)C(=O)N1Cc1ccc(F)cc1
→ 7%	-10%	-5%	0%[46.1 µM]	-2%	-29%	/	/
- CCCS(=O)(=O)n1nc(-c2ccc(OC)cc2OC)cc1N
→ ?	9%	/	/	-7%	25%	4%	-4.4%
- CCN1C(=O)NC(=O)/C(=C\c2cn(CC(=O)N3CCCCC3C)c3ccccc23)C1=O (configuration not stated)
→ 15%	1%	-5%[46.1 µM]	-12%[46.1 µM]	12%	-17%	/	/
- COc1ccc(CCNC(=O)CCCCCn2c(SCC(N)=O)nc3cc4c(cc3c2=O)OCO4)cc1OC
→ 3%	6%	10%[46.1 µM]	?	4%	?	4%	4.6%
- CCN(CC)S(=O)(=O)c1cc(C(=O)Oc2ccccc2OC)ccc1OC
→ -35%	6%	21%	-14%	-4%	51%[activator]	?	-2.9%
- NC(=O)c1ccccc1NC(=O)COc1ccc2c(c1)OCO2
→ -3%	5%	?	?	-1%	7%	/	/
- O=C(COC(=O)c1ccc(O)cc1O)Nc1cc(-c2ccccc2)nn1-c1ccccc1
→ /	-15%	?	?	2%	-20%	/	/
- CCOc1cc2[nH]c(=S)n(CCC(=O)NCc3ccco3)c(=O)c2cc1OCC
→ /	1%	3%	3%[46.1 µM]	0%	13%	/	/
- CCc1nnc(NC(=O)c2ccc(Cl)nc2)s1
→ /	-1%	-16%[46.1 µM]	11%[46.1 µM]	-1%	4%	/	/
- COc1ccc(NC2CCN(C3CC(=O)N(c4ccc(F)c(Cl)c4)C3=O)CC2)cc1 (configuration not stated)
→ -54%	6.3µM*	3%	0%[46.1 µM]	-35%	-5%	4%	2.9%
- COc1cc(C2C(=O)N(C3CCCC3)CC(=O)N2Cc2ccco2)ccc1OC(C)C (configuration not stated)
→ 2%	4%	-6%[14.3 µM]	-4%	4%	-1%	-11%	2.4%
- Cn1c(=O)n(C)c2cc(NS(=O)(=O)c3ccc(C(C)(C)C)cc3)ccc21
→ -13%	-8%	?	?	-1%	-8%	/	/
- CCC1(c2ccccc2)NC(=O)N(CC(=O)N(C)Cc2ccccc2)C1=O (configuration not stated)
→ -1%	12%	6%	9%	-2%	-3%	/	/
- Cc1ccc2c(c1)C1C3CCC(C3)C1S(=O)N2 (configuration not stated)
→ /	4%	2%	14%[46.1 µM]	3%	-11%	/	/
- CCN(CC)c1ccc2cc(-c3nnc(-c4cccc(Cl)c4)o3)c(=O)oc2c1
→ /	/	7%[46.1 µM]	/	/	36%[activator]	-6%	0.7%
- N#Cc1c(-c2ccccc2)cc(-c2ccc3c(c2)OCO3)[nH]c1=O
→ /	23%	-4%	?	-2%	-13%	/	/
- COC(=O)c1ccc(CNC(=O)c2ccc(OCC(=O)N3CCOCC3)c(OC)c2)cc1
→ /	2%	0%	7%[46.1 µM]	-3%	-12%	/	/

Additional structures.
Values run as follows: NS1 inh	RE007 growth inh	LASV entry inh	MARV entry inh	SARS PLP yeast	StopGo reporter	Cruzain noTriton	Cruzain Triton
- CC(=O)c1cccc(OC(=O)c2ccccc2)c1
→ /	-9%	2%	3%	/	26%	/	/
- Cc1ccc(CCNC(=O)c2ccc(CNS(=O)(=O)c3ccc(F)cc3)cc2)cc1
→ /	/	2%[46.1 µM]	/	/	-12%	-5%	0.1%
- O=C(CSc1nc(C2CCCCC2)nc2ccccc12)NCc1ccco1
→ -11%	6%	5%	-17%[46.1 µM]	-2%	?	/	/
- CCN1CCN(c2cc(N3CCCC3)c([N+](=O)[O-])cc2F)CC1
→ -4%	1%	11%	1%	-7%	-23%	10%	-9.7%
- CCCCOc1ccc(N2C(=O)CC(NCc3ccncc3)C2=O)cc1 (configuration not stated)
→ /	-18%	0%[46.1 µM]	2%[46.1 µM]	-3%	-8%	/	/
- COCC(C)NC(=O)c1cc(-c2cccc(OC)c2)on1 (configuration not stated)
→ -5%	-18%	21%	8%	7%	40%[activator]	-5%	-2.0%
- CCOC(=O)C1Oc2ccccc2C(c2ccc(C)cc2)=C1C(=O)OC (configuration not stated)
→ /	-15%	/	/	-21%	-27%	6%	-2.0%
- O=C(CCCc1nc2ccccc2s1)N1CCN(S(=O)(=O)c2cccs2)CC1
→ -9%	8%	?	10µM*	-2%	?	-1%	-6.9%
- CCOc1ccc(CCNC(=O)c2cc3cc4ccc(OC)cc4nc3s2)cc1OCC
→ /	/	-7%[46.1 µM]	?	/	-19%	4%	-0.2%
- CC1(C)CC(=O)C2=C(C1)Oc1ncn3nc(-c4cccnc4)nc3c1C2c1ccccc1 (configuration not stated)
→ -31%	-8%	10%	4%	-1%	-6%	2%	-2.4%
- Nc1ccc(C(=O)N/N=C/c2c[nH]c3ccccc23)cc1
→ -2%	2%	/	/	-2%	47%[activator]	/	/
- Cc1ccc(CSCCNC(=O)CN(c2ccccc2)S(C)(=O)=O)cc1
→ -8%	27%	?	-6%[46.1 µM]	0%	-7%	/	/
- Cc1ccc(NC(=O)Cn2cc(S(=O)(=O)c3ccc(C)cc3)c(=O)c3cc(F)ccc32)cc1
→ 1%	1%	7%	4%	7%	-18%	?	-2.1%
- NC(=O)C1CCCN(C(=O)c2ccc(-c3cccc(Cl)c3Cl)o2)C1 (configuration not stated)
→ /	4%	?	?	-2%	7%	/	/
- CCC(=O)N1N=C(c2ccc(NS(C)(=O)=O)cc2)CC1c1ccc(C)cc1 (configuration not stated)
→ 1%	-13%	-2%	23%	1%	24%	3%	-3.9%
- COc1nc2ccccc2nc1N1CCN(Cc2ccc3c(c2)OCO3)CC1
→ -10%	-10%	/	/	-1%	-21%	/	/
- CCOc1cc(S(=O)(=O)N2CCC(c3nc4ccccc4s3)CC2)c(OCC)cc1S(=O)(=O)N1CCCCC1
→ 11%	11%	?	-23%	-2%	/	4%	1.1%
- Cc1ccccc1/C=N/NC(=O)Cc1ccc(Cl)cc1
→ /	-2%	-2%	-2%[46.1 µM]	0%	10%	/	/
- CCS(=O)(=O)N1CCC(C(=O)NCCc2ccccc2)CC1
→ -6%	-12%	10%	15%	1%	/	-2%	4.1%
- CCC12CN3CCN(CC(C3)/C1=N\NC(=O)c1ccc(C(C)(C)C)cc1)C2
→ 25%	-18%	2%	-1%	-14%	-1%	-7%	-1.5%

Additional structures.
Values run as follows: NS1 inh	RE007 growth inh	LASV entry inh	MARV entry inh	SARS PLP yeast	StopGo reporter	Cruzain noTriton	Cruzain Triton
- COc1ccc(CNC(=O)c2cnc3sc(N4CCC(C)CC4)nn3c2=O)c(OC)c1
→ /	/	10%[46.1 µM]	/	/	-36%	2%	2.5%
- CC(=O)CCCC(NS(=O)(=O)CCC(Cl)(Cl)Cl)c1ccccc1 (configuration not stated)
→ 12%	-3%	/	/	2%	4%	/	/
- Cc1cc2c(cc(C(=O)OCC(=O)NC3CCCCC3)n2C)o1
→ /	1%	14%	-30%[46.1 µM]	/	-1%	/	/
- Cc1nn(-c2ccc(Cl)c(Cl)c2Cl)c(=O)c2ccccc12
→ -8%	-9%	3%	0%	-5%	?	14%	-8.1%
- CC(=O)N1N=C2c3ccccc3CCC2C1c1ccc(F)cc1 (configuration not stated)
→ 0%	17%	?	?	-2%	-22%	/	/
- COc1ccc(CC(=O)Nc2cc(C)ccn2)cc1
→ 4%	2%	6%	1%	0%	61%[activator]	-4%	11%
- CC(C)Cn1c2c(c(=O)[nH]c1=O)C(C(F)(F)F)(C(F)(F)F)N=C(CCC1CCCCC1)N2
→ 11%	-2%	?	?	2%	?	-8%	-2.4%
- CCC(C(=O)Nc1ccccc1C(=O)OC)n1nc(C)c2c(C)n(-c3ccc(C)cc3)nc2c1=O (configuration not stated)
→ /	/	?	/	/	-10%	1%	-5.2%
- Cc1sc2nc(CN(C(=O)NC3CCCCC3)C3CCCC3)[nH]c(=O)c2c1C
→ -12%	2%	/	/	3.5µM*	2%	-3%	8.4%
- O=C(Nc1ccc2c(c1)OCCO2)C1CCCN1C(=O)Nc1ccccc1 (configuration not stated)
→ -2%	-7%	-1%	1%[46.1 µM]	11%	5%	/	/
- CC(C)N(Cc1cc2ccccc2[nH]c1=O)C(=O)c1cccc([N+](=O)[O-])c1
→ -4%	-19%	1%	-1%[46.1 µM]	-5%	-15%	/	/
- O=C(c1ccc(-n2cncn2)c([N+](=O)[O-])c1)N1CCN(S(=O)(=O)c2c(F)cccc2F)CC1
→ /	-8%	20%	11%	1%	-2%	/	/
- CCCc1nnc(SCC(=O)N2CCCC(C)C2)n1CCCOC (configuration not stated)
→ -13%	-4%	-13%	3%[46.1 µM]	4%	3%	6%	1.8%
- CCOC(=O)N1CCN(C(=O)c2ccc(Cl)c(S(=O)(=O)Nc3ccccc3)c2)CC1
→ -8%	-1%	-2%	-1%[46.1 µM]	3%	-21%	4%	3.3%
- COc1cc2c(cc1NC(=O)C(C)Sc1cccc[n+]1[O-])oc1ccccc12 (configuration not stated)
→ -21%	-15%	15%	?	-19%	17%	?	-24%
- C=C1c2ccccc2S(=O)(=O)N(Cc2ccccc2)C1COCc1ccccc1 (configuration not stated)
→ 5%	-10%	/	/	-3%	-19%	/	/
- COc1nn(CC(=O)N2N=C(C)CC2(O)C(F)(F)F)cc1[N+](=O)[O-] (configuration not stated)
→ -8%	2%	6%	1%	-14%	6%	12%	0.1%
- O=C(NCCN1CCCC1)C1CC(=O)N(C2CCCCC2)C1 (configuration not stated)
→ ?	-10%	2%	-27%	-1%	-3%	-3%	5.9%

Assay outcomes as filed in PubChem.
